Screening data from PubChem BioAssay.
Rango complex inh = inhibitors of Rango-importin beta complex formation; hit rate 0.031% among 340,000; Q14974; Potency, µM (titrated, usually from 92.2 µM), for inactives: at the top dose inhibition of complex formation; AID 540263; Rango CFP/YFP FRET sensor + importin beta, 45 min; active = rising FRET ratio curve, often small or poorly fitted; inconclusive = mostly compound fluorescence or quenching in the first reads; inactive = flat curves in all reads;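 note: potency is the fitted concentration of half-maximal effect; 0% = DMSO wells and 100% = buffer wells lacking importin beta; nearly all actives have a fitted effect of over 15% in size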
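Inhibition scored from the CFP 486 nm/YFP 530 nm FRET ratio 45 min after adding 0.125 microM importin beta to 50 nM Rango biosensor preincubated 5 min with compound (room temperature, PBS with DTT, Tween-20, BSA). No-importin wells as positive control.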
Rango release inh = inhibition of RanGTP-driven Rango-importin beta dissociation | Potency, µM (titrated, usually from 46.1 µM), inactives show at the top dose activity change, negative = inhibition | AID 540253 | Biochemical FRET Rango-importin beta, RanGTP-induced dissociation | hit rate 0.071% among 340,000 | O95149+P62826; active means falling FRET ratio curve, often poorly fitted, with flat reads before Ran was added; inconclusive means other falling curves, or compound fluorescence or quenching; inactive means flat or rising ratio curve;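 note: potency is the fitted concentration of half-maximal effect; % of control where 0% means no effect; nearly all actives have a fitted effect of over 45% in size; -100% = wells without RanGTP and RCC1; the record marks most hits as doubtful in a second field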
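Quantitative HTS using a FRET biosensor: 0.1 uM Rango, 0.25 uM importin beta, 0.6 uM Ran, 2 mM GTP, 0.2 uM RCC1 final, PBS with DTT, Tween-20 and BSA. Post-read taken 45 min after Ran addition.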
miR-21 FLuc = miR-21 reporter, rising signal; Potency, µM (series often up to 38.3 µM), without a hit: at the top dose reporter change, positive = more light; 340,000 tested, under 10 active; HeLa miR-21 FLuc reporter, luciferase, 48 h; active = well fitted rising curve with a large enough effect; inconclusive = small, poorly fitted or top-dose-only effect; inactive = no such curve, though single readings can be large or run the other way;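 note: % of control where 0% means no effect; miR-21 action dims this reporter so a rising signal means less miR-21 action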
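HeLa cells stably expressing CMV-driven firefly luciferase with a downstream miR-21 binding sequence, endogenously expressing miR-21, were treated with titrations (up to about 40uM final) for 48 hours at 37 degree Celsius. Luciferase luminescence was read after lysis.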
GLA inh pH 4.5 = alpha-galactosidase A (human) inhibition, pH 4.5 | AID 1467 | purified enzyme, 4-MU-alpha-Gal fluorescence, pH 4.5 | 230,000 tested, under 10 active | activity change, negative = inhibition, % at 105 µM; inconclusive = small, poorly fitted or top-dose-only inhibition, or a rising curve; inactive = flat fitted curve, though single readings scatter; no compound was filed as active;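 note: 0% = full activity with enzyme and -100% = basal without enzyme; dose as in the result columns while the protocol names 77 µM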
Target sequence (P06280 whole entry, looked up): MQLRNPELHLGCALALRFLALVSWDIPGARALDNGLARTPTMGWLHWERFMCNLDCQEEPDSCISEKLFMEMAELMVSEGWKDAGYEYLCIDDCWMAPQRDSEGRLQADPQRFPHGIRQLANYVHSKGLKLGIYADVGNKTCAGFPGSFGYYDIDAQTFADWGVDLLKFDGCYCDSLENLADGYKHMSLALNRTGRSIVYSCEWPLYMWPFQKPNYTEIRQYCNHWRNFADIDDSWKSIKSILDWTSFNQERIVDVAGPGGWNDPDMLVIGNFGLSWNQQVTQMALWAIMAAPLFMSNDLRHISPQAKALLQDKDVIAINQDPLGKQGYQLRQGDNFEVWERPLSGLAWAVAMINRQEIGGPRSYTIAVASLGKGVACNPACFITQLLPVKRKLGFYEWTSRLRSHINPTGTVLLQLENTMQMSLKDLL
An asterisk follows results filed as active; ? = inconclusive; nt = no result given.

SMILES | Rango complex inh | Rango release inh | miR-21 FLuc | GLA inh pH 4.5
COc1ccccc1/C=C/C=N/n1c(-c2ccco2)n[nH]c1=S | -0.3% | 4% | 2% | -4
CC(NC(=O)Cc1ccc(-c2ccccc2)cc1)c1ccccc1 (stereo not given) | 3.1% | 8% | -6% | 0
O=C([C@@H]1CCCN1C(=O)c1cccs1)N1CCN(S(=O)(=O)c2cccc(F)c2)CC1 | 0.3% | -18% | nt | nt
Cn1cc(/C=C2\SC(=S)N(NC(=O)c3ccccc3Cl)C2=O)c2ccccc21 | ? | ? | -8% | -11
CC1=NN(C(N)=S)C(=O)C1N=Nc1ccc(Br)cc1 (stereo not given) | 2.3% | -2% | -61% | nt
CCOc1cccc(CNCc2ccc(C(=O)O)cc2)c1 | 0.8% | 0% | -2% | 9
COc1cccc(-n2nnnc2S(C)(=O)=O)c1 | -3.3% | -18% | ? | -1
O=C(Cc1cccc(NC(=O)C2CCCN(C(=O)C3CCCCC3)C2)c1)Nc1cccc(C(=O)N2CCCC2)c1 (stereo not given) | 5.4% | -5% | nt | nt
Cc1ccc(C)c(-n2cc(CNCCc3cnccn3)c(-c3ccccc3)n2)c1 | -3.4% | 27% | -8% | -6
Cc1nc2ccc(NC(=O)Cc3ccsc3)cc2s1 | ? | 11% | -50% | -5

Looked up by structure from the entries so far, 6 records:
SMILES | Rango complex inh | Rango release inh | miR-21 FLuc | GLA inh pH 4.5
O=C(Cc1cccc(NC(=O)C2CCCN(C(=O)C3CCCCC3)C2)c1)Nc1cccc(C(=O)N2CCCC2)c1 (stereo not given) | 5.4% | -5% | nt | nt
Cc1nc2ccc(NC(=O)Cc3ccsc3)cc2s1 | ? | 11% | -50% | -5
O=C([C@@H]1CCCN1C(=O)c1cccs1)N1CCN(S(=O)(=O)c2cccc(F)c2)CC1 | 0.3% | -18% | nt | nt
CC(NC(=O)Cc1ccc(-c2ccccc2)cc1)c1ccccc1 (stereo not given) | 3.1% | 8% | -6% | 0
Cn1cc(/C=C2\SC(=S)N(NC(=O)c3ccccc3Cl)C2=O)c2ccccc21 | ? | ? | -8% | -11
COc1cccc(-n2nnnc2S(C)(=O)=O)c1 | -3.3% | -18% | ? | -1

Continued:
SMILES | Rango complex inh | Rango release inh | miR-21 FLuc | GLA inh pH 4.5
CC(C)(C)c1ccc(-c2nc(C#N)c(NCCCn3ccnc3)o2)cc1 | 2.2% | -4% | -7% | -16
CCOC(=O)C1(CCOC)CCN(C(=O)Cc2ccsc2)CC1 | 0.2% | 15% | -1% | nt
Cc1ccc(S(=O)(=O)N(CC(=O)c2ccccc2)C(=O)N2CCN(C)CC2)cc1 | 2.7% | 17% | nt | nt
CC1CCN(S(=O)(=O)c2ccc3[nH]c(=O)c(=O)[nH]c3c2)CC1 | -0.5% | -8% | -1% | 8
C/C(=N\NS(=O)(=O)c1c(C)cc(C)cc1C)c1ccncc1 | 2.8% | -15% | 1% | nt
O=C(CSc1ccccc1)N[C@@H](Cc1ccccc1)C(=O)O | 3.5% | 6% | -3% | 0
CCN(C(=O)CSc1nc(N)cc(N)n1)C1CCS(=O)(=O)C1 (stereo not given) | ? | 12% | -1% | nt
COc1ccc(NC(=O)CSc2nnc3ccc(-c4ccccn4)nn23)cc1 | -0.7% | 4% | nt | nt
O=C1CC(=O)N(Cc2ccco2)C(=O)N1 | ? | ? | 2% | 2
CCOC(=O)C1C(c2ccc(O)c(OC)c2)NC(=S)NC1(O)C(F)(F)F (stereo not given) | 0.5% | -15% | -1% | -14
CC(C)c1ccc(-c2nnn(CCC#N)n2)cc1 | -0.3% | -10% | -43% | 6
O=C(c1cccnc1)N1CCN(S(=O)(=O)c2ccc(S(=O)(=O)N3CCCC3)cc2)CC1 | -1.1% | 1% | 3% | -1
COc1ccc(Cl)cc1S(=O)(=O)N1CCN(c2ccc(F)cc2)CC1 | -0.7% | 0% | -4% | -2
O=C1OC(C(=O)Nc2nccs2)Cc2ccccc21 (stereo not given) | -0.6% | -3% | -6% | 3
COc1ccc(N2CCN(C(=O)c3ccc(OCC4CCCO4)cc3)CC2)cc1 (stereo not given) | 0.9% | 9% | -2% | -5
Cc1ccc(NC(=O)CCC(=O)NNC(=O)c2cccs2)cc1C | -0.9% | 3% | -12% | -15
Cc1cc(C(=O)NC(C)c2ccccc2)c2cc(F)ccc2n1 (stereo not given) | -0.4% | -2% | 0% | 3
Cc1ccccc1NC(=O)C(=O)c1cn(C)c2ccccc12 | -4.0% | -3% | -26% | 2
O=C(NCc1cccs1)C1CC(=O)N(c2ccc(F)cc2)C1 (stereo not given) | -0.2% | 5% | -3% | 2
O=C(Nc1ccc(O)cc1)c1ccc(NC(=O)C2CCCO2)cc1 (stereo not given) | ? | -5% | -15% | nt
CC(C)NC(=S)N/N=C/c1ccccc1[N+](=O)[O-] | -0.6% | -7% | 4% | 7
CCCc1nc2sc3c(c2c(=O)[nH]1)CCCC3 | 0.2% | -2% | -6% | 6
CCN(CC)c1ccc(CNc2nc3ccccc3n2C(C)C)cc1 | -4.1% | 19% | 0% | -15
Cc1cc(C)n2nc(SC3CCCCN(C(=O)c4ccc(F)cc4)C3=O)nc2n1 (stereo not given) | -0.1% | 4% | -28% | 2
COc1cc(OC)c(S(=O)(=O)N2CCOCC2)cc1S(=O)(=O)N1CCOCC1 | 1.1% | -8% | -3% | nt
CCCN1C(=O)/C(=C/c2nc3ccccc3c(=O)[nH]2)c2cc(C)ccc21 | ? | -17% | -6% | -6
CCOc1ccc(NS(=O)(=O)c2ccc(C(=O)N(C)CCc3ccc(OC)c(OC)c3)cc2)cc1 | 0.0% | -5% | 14% | nt
C=C(C)Cn1c(SCC)nc2ccccc2c1=O | 0.2% | 2% | -9% | 1
COc1ccccc1CNC(=O)C1CC2Cn3c(nc4cc(C)c(C)cc43)C2N1C (stereo not given) | -4.4% | ? | nt | nt
COC(=O)c1c(NC(=O)COC(=O)CCc2ccc(S(=O)(=O)N3CCOCC3)cc2)sc2c1CCC2 | -6.5% | -8% | -7% | 4
CCOC(=O)c1cnn(-c2cc(Oc3cccc(C)c3)ncn2)c1N | 4.5% | 0% | -4% | 8
Cc1cccc(NC(=O)NCC(c2ccco2)N2CCCCC2)c1 (stereo not given) | -1.5% | -5% | -19% | -2
Cc1nn(Cc2ccccc2)c(C)c1NC(=O)c1cc(-c2ccc3c(c2)OCO3)on1 | -0.4% | -12% | -11% | -6
Cc1cccc(C)c1OCC(=O)Nn1c(C)nc2ccccc2c1=O | -0.2% | -14% | 1% | -8
COc1ccc2[nH]c3c(c2c1)CCN1C(=O)C(CC(=O)NCCN2CCOCC2)C[C@H](C(=O)N2CCOCC2)[C@@]31CCC1CCCC1 (stereo not given in full) | 1.4% | -15% | nt | nt
CC(=O)Nc1ccc(SC(C)C(=O)NC2CCCC2)cc1 (stereo not given) | 0.5% | 4% | -1% | nt
CCOc1ccc(-c2cccc(NC(=O)COc3ccc(Cl)cc3)c2)nn1 | -4.5% | 18% | -9% | nt
CCOC(=O)C1CCCN(C(=O)CSc2ccc(Br)cc2)C1 (stereo not given) | 2.9% | 16% | -18% | 7
CCOc1ccc(CCNC(=O)CCn2nc(C)c3c(C)n(-c4ccccc4)nc3c2=O)cc1 | -0.3% | -1% | -1% | nt
COC(=O)c1cc(CNC(=O)C2CC(=O)N(c3ccc4c(c3)OCCO4)C2)ccc1OC (stereo not given) | -3.9% | -9% | nt | nt
CC(=O)Nc1ccc(Oc2cnc3ccccc3n2)cc1 | -1.5% | 0% | 0% | 3
Cc1oncc1C(=O)N1CCCC(CO)(Cc2ccc(F)cc2F)C1 (stereo not given) | 3.9% | -19% | -15% | nt
N#CC1=C(N)Oc2n[nH]c(-c3cccnc3)c2C1c1cc(F)ccc1F (stereo not given) | 0.1% | 4% | 0% | 7
O=C(Nc1ccc(N2CCN(C(=O)c3ccccc3)CC2)cc1)c1cccs1 | -1.0% | 1% | 2% | nt
Cc1ccc(C(=O)Nc2ccc3c(c2)OCCO3)c(Cl)c1 | 0.5% | -4% | 17% | nt
O=C(COC(=O)c1cc([N+](=O)[O-])ccc1N1CCOCC1)Nc1cccc(F)c1 | 1.4% | 6% | 6% | nt
CC(C)CCNC(=O)C1CCCN(S(=O)(=O)c2ccc(F)cc2)C1 (stereo not given) | 4.3% | 1% | -2% | 1
Cc1cc(S(=O)(=O)Nc2ccc3ccccc3c2)c(C)s1 | -3.7% | 0% | 21% | -6
O=C(C1=C[C@@H](c2coc3ccccc3c2=O)C[C@@H](OCc2ccc(CO)cc2)O1)N1CCN(Cc2ccc3c(c2)OCO3)CC1 | 1.2% | 0% | 1% | -4
COc1ccc(CNCc2cc(Cl)ccc2O)cc1 | 0.1% | 0% | nt | nt
(further entries)
SMILES | Rango complex inh | Rango release inh | miR-21 FLuc | GLA inh pH 4.5
Cc1ccc(C(=O)Cn2cc([N+](=O)[O-])nc2C)cc1 | -1.4% | 3% | 1% | -9
CCNc1nc(NCC)nc(SCC(C)=O)n1 | 0.4% | -1% | 1% | 5
COc1ccc(N2CCN(Cc3nc4ccccc4c(=O)[nH]3)CC2)cc1 | 6.2% | 1% | 2% | 2
Cc1c(NC(=O)COC(=O)C23CC4CC(CC(O)(C4)C2)C3)c(=O)n(-c2ccccc2)n1C | 1.7% | -11% | -5% | 4
Cn1c(=O)c2[nH]c(CCCCCc3nc4ccccc4[nH]3)nc2n(C)c1=O | 1.8% | -9% | nt | nt
Cc1c(Cl)cccc1NC(=O)COc1ccc(S(=O)(=O)N2CCOCC2)cc1 | -4.5% | 2% | -2% | 5
COc1ccc(C2/C(=C(\O)c3ccc4c(c3)OCCO4)C(=O)C(=O)N2CCCN(C)C)cc1 (stereo not given) | -2.9% | -3% | -5% | -2
COc1ccc(-c2noc(CCC(=O)NCCc3ccccc3)n2)cc1OC | 3.2% | -27% | -16% | nt
CC(C)[C@H](NC(=O)c1c(F)cccc1F)C(=O)OCC(=O)NC(=O)NC1CCCC1 | 0.4% | ? | -2% | nt
O=C(CNS(=O)(=O)c1ccc(Br)cc1)N1CCN(Cc2ccccc2)CC1 | -3.8% | 1% | 6% | nt
COc1ccc(CC(=O)OCC(=O)NCc2ccco2)cc1 | 0.3% | -9% | nt | nt
COc1cc2c(cc1OC)CN(C(=S)Nc1c(C)cccc1C)CC2 | 2.1% | -5% | -3% | -13
COC(=O)CC1C(=O)NCCN1C(=O)c1ccccc1 (stereo not given) | 1.0% | 8% | 2% | -2
COc1ccccc1NC(C)C(=O)N/N=C/c1cccs1 (stereo not given) | 0.2% | -17% | -6% | -5
COc1ccc(NC(=O)N(C)C[C@H]2Oc3ccc(NS(=O)(=O)c4ccc(OC)cc4)cc3C(=O)N([C@H](C)CO)C[C@@H]2C)cc1 | -0.2% | -4% | nt | nt
CCCCn1c(SCC(=O)NCC2CCCO2)nc2ccc(N3CCOCC3)cc2c1=O (stereo not given) | ? | 0% | -8% | -3
CCCCC(CC)C1OCC(CN2CCCCC2)O1 (stereo not given) | 2.3% | 8% | 0% | -1
CC(C)c1ccc(S(=O)(=O)c2nnn3c2nc(N2CCCCC2)c2ccccc23)cc1 | -3.6% | -5% | -7% | -12
O=C(CO/N=C/c1ccccc1OC(F)F)NCc1cccs1 | -1.3% | 7% | -9% | 4
CC(C)CNC(=O)c1cnn2c(C(F)(F)F)cc(C(F)(F)F)nc12 | 3.3% | -5% | 6% | -1

Profiles, looked up by structure. Order of screens: Rango complex inh	Rango release inh	miR-21 FLuc	GLA inh pH 4.5
CCOc1ccc(CCNC(=O)CCn2nc(C)c3c(C)n(-c4ccccc4)nc3c2=O)cc1 is entered as -0.3%	-1%	-1%	nt
O=C(CO/N=C/c1ccccc1OC(F)F)NCc1cccs1 is entered as -1.3%	7%	-9%	4
CC(NC(=O)Cc1ccc(-c2ccccc2)cc1)c1ccccc1 (stereo not given) is entered as 3.1%	8%	-6%	0
Cc1ccc(C(=O)Cn2cc([N+](=O)[O-])nc2C)cc1 is entered as -1.4%	3%	1%	-9
CCOC(=O)c1cnn(-c2cc(Oc3cccc(C)c3)ncn2)c1N is entered as 4.5%	0%	-4%	8

Only part of the results is shown (hit frequency here may not be typical).
